# Mtb hypoxia rep: PubChem AID 1159583 | actives 0.1% (n = 300,000) | M. tuberculosis hypoxia-regulated fluorescent reporter, fluorescence | fluorescence inhibition, % (concentration not given with the values);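 active means 35 to 45% if threefold the growth effect, above 45% if 1.5-fold the growth effect; inactive means the rest, general growth blockers included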;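 further: wells of about 50 µL received 100 nL stock; 0% = vehicle wells and 100% = reference inhibitor wells; whole bacteria with a GFP reporter of the hypoxia response; strong numbers were not always called active; many hits fall short of the cut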
# Sa ugtP lethal: growth inhibition of ugtP-null S. aureus, primary screen, RN4220 ugtP deletion, OD600. growth inhibition, % (test concentration not listed). AID 1259309, 2017. 16 h; some inactives read as strong as hits. actives 0.54% (n = 330,000);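 active means z-score under -3 and OD600 up to 0.15 on both plates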;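 further: plate controls were untreated wells for no effect and antibiotic for full effect; wells of about 80 µL received 100 nL stock; the first replicate is given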
# PrP UTR inh: inhibition of PrP 5' UTR reporter expression; AID 488862, 2010; actives 0.35% (n = 340,000); cell-based PrP 5' UTR mRNA reporter, plate reader; inhibition, % (test concentration not listed);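 active means every replicate at 50% or more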;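 further: 0 = median of the neutral control wells; tested in H4 reporter cells; numbers are from one replicate; inactives centre near -14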
# Autofluor counter: compound fluorescence in toxin protease inhibitor counterscreen; compound autofluorescence counterscreen, microsphere flow cytometry; hits give high values; actives 3.1% (n = 360,000); fluorescence intensity (test concentration not listed);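 active means at least 3 SD above the mean of all compounds, about 16000 in these data; inconclusive means too few beads counted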;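 further: 100 nL of 1 mM stock went into each well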
# BJeLR viability: MLPCN primary cell-based screen for lethality selective to Ras in HRASV12 cells; BJeLR (HRASV12) viability, CellTiter-Glo ATP luminescence, 48 h; reference of the scale not given here; inhibition, % (no concentration beside the values); actives 0.17% (n = 300,000); AID 1554, 2009;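 active means replicate mean above 50%; inconclusive means above 50% but judged a plate artefact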;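 further: 50 nL library stock added to about 25 µL; numbers are from one replicate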
# Sa RN4220 lethal: growth inhibition of S. aureus RN4220, primary screen, OD600 | 16 h | actives 0.33% (n = 330,000) | inhibition, % (test concentration not listed);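 active means z-score of -3 or lower and OD600 up to 0.18 on both plates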;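 further: plate controls were untreated cells for no effect and reference antibiotic for full effect; stock transfer was 100 nL into about 80 µL; one replicate is shown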
# Mtb hypoxia rep growth: second read-out of Mtb hypoxia rep, no call of its own (marks repeat the call); growth inhibition, %; measured here: M. tuberculosis growth (absorbance);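 0% = vehicle and 100% = reference antibiotic; read after six days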
# The depositor's hits bear a star; ? = inconclusive; / = no result given.
SMILES,Mtb hypoxia rep,Mtb hypoxia rep growth,Sa ugtP lethal,PrP UTR inh,Autofluor counter,BJeLR viability,Sa RN4220 lethal
Cc1ccc(-n2nc3c(c2NC(=O)c2cc4ccccc4o2)CS(=O)(=O)C3)cc1,6.6,0.0,1.9,-7.1,4537,-2.3,7.3
CC(C)N1C(=O)C2C(C(=O)NC3CCCCC3)C3C=CC2(O3)C1C(=O)NC1CCCC1 (configuration not stated),-4.4,8.9,-0.8,-19.7,4056,12.1,3.2
O=C(O)CN(c1ccccc1)C1SC(=O)NC1=O (configuration not stated),/,/,-5.2,3.4,2078,-0.1,0.4
CCOC(=O)c1c(C)[nH]c(C)c1S(=O)(=O)N1CCC(c2ccccc2)C1 (configuration not stated),-4.8,2.4,-2.3,-14.4,5507,2.9,0.8
Cc1cccc(/C=N/NC(=O)c2ccc(NC(=O)c3ccccc3C)cc2)n1,/,/,/,-22.3,4360,3.8,/
CCCCN1CCN=C1N(C)C,8.8,13.6,2.9,-11.3,2959,/,-4.4
Cc1ccc(Cn2cccc2/C=C2/C(=N)N3C=CSC3=NC2=O)cc1,8.0,-1.7,10.0,-12.8,9266,5.7,3.0
O=C(/C=C/c1ccc2c(c1)OCO2)N1CCCCC1,/,/,1.4,-45.4,3158,4.1,7.6
Cc1sc2ncn(CC(=O)NCCCN3CC(C)CC(C)C3)c(=O)c2c1S(=O)(=O)N1CC(C)CC(C)C1 (configuration not stated),14.6,3.1,3.2,-9.6,4132,-5.1,-0.9
CC(CC(=O)Nc1ccc2c(c1)OCCO2)=NNC(=O)COc1ccccc1C,-2.9,-6.3,7.1,/,/,/,1.7
CCCC(=NNC(=O)c1cccc(Cl)c1)c1ccccc1,-1.1,-2.2,0.6,/,/,/,4.4
O=C(NCC1(c2ccccc2)CCOCC1)c1cccs1,2.6,2.5,3.1,0.0,3393,-2.9,13.5
O=C(COC(=O)c1cc2ccccc2cc1O)Nc1ccccc1F,-2.4,-16.1,-1.5,-39.6,5664,/,4.1
O=C(O)c1c(N2CCCCC2)ccc([N+](=O)[O-])c1N1CCCCC1,3.4,3.5,8.9,-7.0,6227,4.8,5.4
NC(=O)CSc1oc(-c2ccco2)nc1S(=O)(=O)c1ccccc1,6.3,1.0,4.5,-16.1,5128,10.8,-0.9
N#Cc1cnc(SCC(=O)N2CCCC2)nc1N,7.6,-2.1,1.3,-16.2,5729,5.6,1.1
COc1ccc(NC(=O)c2ccccc2Sc2ccc(NC(C)=O)nc2)cc1,19.2,-1.3,12.2,-23.9,3545,1.6,2.8
Cc1sc2nc(C3CC3)nc(SCC(=O)N3c4ccccc4CC3C)c2c1C (configuration not stated),-3.4,-6.2,9.1,7.2,?,15.6,-2.4
COc1ccc(CNC(=O)CSCc2cccc(Cl)c2)cc1,7.0,7.0,1.4,0.1,2068,-10.0,3.2
Cc1ccc(N2CC(C(=O)Nc3ccc(S(=O)(=O)NCC4CCCO4)cc3)CC2=O)cc1C (configuration not stated),4.2,3.6,5.4,-25.0,3872,-2.8,-0.3
Cc1cccc(Cn2nnc3c2C(=O)c2ccccc2C3=O)c1,9.0,6.5,85.6*,-11.1,16137*,-2.6,69.3
COCCn1c(SCC(=O)N2CCOCC2)nnc1-c1ccncc1,7.7,1.6,1.0,-18.0,3959,1.6,1.4
COc1cccc(OCC(=O)NCC2CCCO2)c1 (configuration not stated),8.0,7.2,5.7,-10.6,8450,/,0.5
O=C(Nc1ccccn1)c1ccc(Cl)c([N+](=O)[O-])c1,8.9,3.1,-0.9,-8.3,4535,0.2,-0.3
Cc1nc(SC(C)C(=O)NC2CCCC2)c2ccccc2n1 (configuration not stated),12.9,8.1,4.8,-17.1,8641,/,1.5
O=C(c1cc(Cl)nc2ccccc12)N1CCCCC1,-1.7,1.8,-5.0,-8.9,6746,5.7,-1.5
COc1cccc(-n2nnc3c(=O)n(Cc4ccccc4Cl)cnc32)c1,7.5,-2.6,1.8,-1.5,11238,-0.4,0.2
Cc1ccsc1/C=N/N1CCOCC1,/,/,/,-14.3,3270,-0.1,/
CCOc1ccc2nc(NC(=O)CSc3nc(SC)ns3)sc2c1,10.8,3.3,-9.4,-12.7,7934,-5.8,2.2
CC(C)[C@H](NS(=O)(=O)c1ccc(Cl)cc1)C(=O)OCC(=O)c1c(N)n(C)c(=O)n(C)c1=O,1.4,3.4,-3.7,-5.7,5910,/,1.9
Cc1ccc(-c2csc3nc(SCC(N)=O)n(Cc4ccccc4)c(=O)c23)cc1,2.9,4.0,78.6,-22.5,1965,-7.5,-6.5
Cc1cc(C(F)(F)F)c(C#N)c(SCC(=O)Nc2nc3ccccc3s2)n1,-7.7,-0.7,-15.1,-39.6,4300,-4.3,1.0
COc1ccccc1C(=O)NC(=O)COc1cc(Cl)ccc1Cl,5.7,-0.5,14.1,-7.8,?,4.0,6.9
Cc1ccc(/C=C2\SC(=S)N(CCC(=O)Nc3cccnc3)C2=O)cc1,0.4,-11.5,-3.8,-9.5,5183,8.0,2.5
CC1=NN(C(N)=S)C(=O)C1N=Nc1ccc(Cl)cc1 (configuration not stated),7.9,-0.1,4.0,-96.8,4010,-3.1,-2.2
CC1=NNC(=O)C1CCC(=O)NN=Cc1ccc(Cl)cc1Cl (configuration not stated),6.0,-3.6,2.0,/,/,/,2.3
CCOc1ccccc1C(=O)Nc1ccc(S(=O)(=O)Nc2nccc(C)n2)cc1,14.2,10.4,2.3,-19.5,/,6.3,1.4
Cc1nn(-c2ccccc2)c(C)c1C(=O)Nc1nnc(-c2ccco2)o1,0.5,2.9,-17.8,-20.2,20671*,2.0,4.7
COC(=O)c1c(-c2cccs2)csc1NC(=O)CSc1ncnc2sc(C)c(C)c12,-1.2,4.5,1.1,-6.7,11640,-3.5,7.4
C=CCNC(=O)c1ccccc1SCc1c(C)noc1C,1.1,4.4,4.0,-7.2,5699,8.2,-3.9
COc1ccc2oc(C(=O)OCC(=O)N(CCC#N)c3ccccc3)c(C)c2c1,3.0,-1.1,-2.3,-9.7,5272,9.4,-1.4
CC1=C(C(=O)OC(C)C)C(c2cccc(F)c2)n2ncnc2N1 (configuration not stated),-1.7,17.4,-2.2,-35.0,6449,3.7,-10.6
COc1cccc(C(=O)NCC(=O)OCC(=O)C(C)(C)C)c1,3.0,5.5,-2.3,-4.9,2123,3.2,1.7
CCNC(=S)N(CCc1ccc(S(N)(=O)=O)cc1)C1CC(=O)N(c2ccccc2)C1=O (configuration not stated),-3.3,-3.9,0.5,-6.0,3430,6.7,5.8
CCn1nc(C)cc1C(=O)N1CCCC(N2CCN(Cc3ccc4c(c3)OCO4)CC2)C1 (configuration not stated),-2.6,3.9,-3.9,-17.6,5874,9.3,-1.3
Cc1ccc(SC(C)C(=O)Nc2c(C)n(C)n(-c3ccccc3)c2=O)cc1 (configuration not stated),4.2,0.9,1.3,0.2,9942,1.3,2.6
CCN(CC)C(=O)c1ccc(NC(=O)c2cccc(S(=O)(=O)N3CCN(C)CC3)c2)cc1,6.3,-2.0,-0.8,-18.4,5749,0.7,-0.9
c1cc(N2CCCC2)ccc1C(c1nnnn1C1CCCCC1)N1CCOCC1 (configuration not stated),-2.8,8.8,-1.8,-13.0,?,17.7,-0.8
CCS(=O)(=O)N1CCCC(C(=O)N2CCC3(CC2)OCCO3)C1 (configuration not stated),-0.7,1.4,15.6,-41.0,3709,6.6,16.0
O=C(CCS(=O)(=O)c1cccs1)Nc1ccc(C(=O)NCc2cccs2)cc1,-2.1,9.0,-2.1,4.5,22948*,20.5,4.4
Cc1ccc(CNC(=O)Cn2ccc3cc(S(=O)(=O)N4CCCCCC4)ccc32)cc1,5.0,-1.3,8.6,1.4,4371,6.3,-5.1
CCc1ccc(C(=O)N2CCCN(C)CC2)s1,/,/,/,2.9,5238,-24.1,/
COc1ccc(Br)cc1S(=O)(=O)NCc1ccccn1,4.7,-2.0,5.3,-16.2,3496,-9.0,5.2
O=C(OCC(=O)N1CCCCC1)c1cccc(NS(=O)(=O)c2ccccc2)c1,-5.4,2.4,0.6,-3.0,5501,-1.1,0.7
C=CCn1c(C)nc2c(cnn2-c2ccccc2)c1=O,-2.2,4.0,10.2,-7.8,3232,-1.8,6.4
CC(C)(C)c1ccc(OCC(=O)Nc2ccncc2)c(Br)c1,1.9,1.0,-0.7,-25.3,3670,13.9,0.0
O=C(CNC(=O)c1ccccc1Br)N/N=C\c1cc([N+](=O)[O-])cc(Br)c1O,/,/,/,-4.7,5928,10.3,/
CN(C1CCCCC1)S(=O)(=O)c1cccc(C(=O)Nc2ccccn2)c1,/,/,/,-2.0,5628,-9.0,/
COc1ccc2c(=O)cc(-c3ccncc3)oc2c1OC,11.2,7.5,9.2,1.6,3093,/,2.5
CC1(C)CCCC2=C1CC1C(=O)N(Cc3cccnc3)C(=O)C1C2 (configuration not stated),7.6,0.7,-4.8,-13.1,6032,-4.2,3.9

# Complete entries as entered above. Values in the order: Mtb hypoxia rep	Mtb hypoxia rep growth	Sa ugtP lethal	PrP UTR inh	Autofluor counter	BJeLR viability	Sa RN4220 lethal
# CCOc1ccc2nc(NC(=O)CSc3nc(SC)ns3)sc2c1 is listed with 10.8	3.3	-9.4	-12.7	7934	-5.8	2.2
# CCCCN1CCN=C1N(C)C is listed with 8.8	13.6	2.9	-11.3	2959	/	-4.4
# COc1ccc(Br)cc1S(=O)(=O)NCc1ccccn1 is listed with 4.7	-2.0	5.3	-16.2	3496	-9.0	5.2
# C=CCNC(=O)c1ccccc1SCc1c(C)noc1C is listed with 1.1	4.4	4.0	-7.2	5699	8.2	-3.9
# COCCn1c(SCC(=O)N2CCOCC2)nnc1-c1ccncc1 is listed with 7.7	1.6	1.0	-18.0	3959	1.6	1.4

# Additional entries follow:
SMILES,Mtb hypoxia rep,Mtb hypoxia rep growth,Sa ugtP lethal,PrP UTR inh,Autofluor counter,BJeLR viability,Sa RN4220 lethal
CCOC(=O)C(NCc1ccc2c(c1)OCO2)(NC(=O)c1ccccc1)C(F)(F)F (configuration not stated),/,/,-2.5,-22.3,4793,-6.7,1.6
O=C(Cn1cccc1)NC1CCCCCC1,14.6,27.4,-5.5,-7.3,11345,1.5,-1.1
Cc1cccc(C(=O)N(C)c2nnc(-c3ccncc3)s2)c1,/,/,3.5,-37.8,3275,-14.1,-2.4
CC(C)(C)NC(=S)/N=C(\N)N[N+](=O)[O-],/,/,/,11.6,5257,1.0,/
CC(C)N(CC(O)c1cccc([N+](=O)[O-])c1)C(C)C (configuration not stated),4.3,13.7,5.4,-23.6,9877,-5.0,3.2
CCc1nnc(SCC(=O)Nc2ccccc2Cl)nc1CC,5.8,-2.6,0.2,-38.4,3811,3.6,-0.8
COc1cccc(/C=N/Nc2ncnc3scc(-c4ccccc4)c23)c1O,/,/,/,50.5,2750,70.1*,/

# Quoted at random: five entries already listed.
SMILES,Mtb hypoxia rep,Mtb hypoxia rep growth,Sa ugtP lethal,PrP UTR inh,Autofluor counter,BJeLR viability,Sa RN4220 lethal
CCOC(=O)C(NCc1ccc2c(c1)OCO2)(NC(=O)c1ccccc1)C(F)(F)F (configuration not stated),/,/,-2.5,-22.3,4793,-6.7,1.6
CCc1nnc(SCC(=O)Nc2ccccc2Cl)nc1CC,5.8,-2.6,0.2,-38.4,3811,3.6,-0.8
CC(C)N(CC(O)c1cccc([N+](=O)[O-])c1)C(C)C (configuration not stated),4.3,13.7,5.4,-23.6,9877,-5.0,3.2
CC(C)(C)NC(=S)/N=C(\N)N[N+](=O)[O-],/,/,/,11.6,5257,1.0,/
Cc1cccc(C(=O)N(C)c2nnc(-c3ccncc3)s2)c1,/,/,3.5,-37.8,3275,-14.1,-2.4

# Screening data: PubChem, several laboratories
